# Source: PubChem (several laboratories)
# PKD1 inh: inhibitors of human PKD1 kinase, biochemical, fluorescence polarization; inhibition, %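 (about 10 µM by stock and volumes)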; actives 0.056% (n = 200,000); PKD1 kinase fluorescence polarization assay;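 active = inhibition of 50% or more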;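 also: controls were vehicle for no effect and a reference inhibitor for full effect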
# Target sequence (Q15139 whole entry, looked up): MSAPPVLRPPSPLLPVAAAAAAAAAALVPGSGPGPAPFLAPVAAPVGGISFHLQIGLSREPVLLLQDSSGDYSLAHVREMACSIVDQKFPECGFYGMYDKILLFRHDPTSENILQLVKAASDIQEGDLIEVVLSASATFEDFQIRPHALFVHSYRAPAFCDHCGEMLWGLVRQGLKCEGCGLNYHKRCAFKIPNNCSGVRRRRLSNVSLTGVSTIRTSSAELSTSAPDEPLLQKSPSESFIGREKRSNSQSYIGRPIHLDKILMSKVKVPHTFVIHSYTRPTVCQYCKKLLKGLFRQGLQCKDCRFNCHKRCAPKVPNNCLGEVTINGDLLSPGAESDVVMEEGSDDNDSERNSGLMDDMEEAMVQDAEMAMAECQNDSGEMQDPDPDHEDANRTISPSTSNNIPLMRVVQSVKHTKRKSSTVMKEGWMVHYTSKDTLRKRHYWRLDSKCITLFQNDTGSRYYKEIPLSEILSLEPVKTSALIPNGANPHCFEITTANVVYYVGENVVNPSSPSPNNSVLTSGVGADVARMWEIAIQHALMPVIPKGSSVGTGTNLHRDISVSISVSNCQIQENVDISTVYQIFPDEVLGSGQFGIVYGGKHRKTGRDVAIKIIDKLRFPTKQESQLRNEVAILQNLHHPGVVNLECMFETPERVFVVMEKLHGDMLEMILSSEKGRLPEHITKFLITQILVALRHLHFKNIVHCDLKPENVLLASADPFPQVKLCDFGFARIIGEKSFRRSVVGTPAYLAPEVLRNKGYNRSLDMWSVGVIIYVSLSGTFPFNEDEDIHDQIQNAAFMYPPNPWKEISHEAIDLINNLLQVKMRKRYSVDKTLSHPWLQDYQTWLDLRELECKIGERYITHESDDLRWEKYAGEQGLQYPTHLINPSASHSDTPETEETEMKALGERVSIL
# RGS16-Gao: modulators of RGS16 binding to Galphao, primary screen, biochemical, human proteins, multiplexed bead flow cytometry; actives 0.38% (n = 220,000); Regulator of G-protein signaling 16 (Homo sapiens) + Guanine nucleotide-binding protein …; bead-based flow cytometry RGS16-Galphao binding, fluorescence; actives lie on both sides; binding response (% of control), % at 10 µM;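 active = below 25% or above 175%, edge rows of some plates excepted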;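 also: Galphao activated by GDP with aluminum fluoride before binding; 100% = wells without compound and 0% = beads without RGS; some results beyond the cut were filed as inactive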
# HSV replic up: enhancers of HSV replication in host cells, fold increase, host cell viability. HSV replication augmentation in cells. AID 1956, 2009. maximum fold increase. actives 0.005% (n = 220,000);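 active = peak rise of 1.5-fold or more in the series; tested in PC3 cells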;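 also: first round at 10 µM; read as green reporter fluorescence; hits show the peak of a series up to 25 µM; 1 = signal of infected wells without compound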
# INS promoter inh: inhibitors of insulin promoter-driven GFP, primary screen, imaging, TRM-6 cells (human fetal islet line), eGFP reporter, cell count | reporter expression induced with tamoxifen | actives 0.9% (n = 130,000) | inhibition, % at 2 µM;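 active = inhibition above the mean plus 3 SD, with well images judged a real hit on visual review, cut at about 60% in these data, passing the limit was not always enough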
# GALR2 ag: GALR2 receptor agonists, primary screen, cell-based; Galanin receptor type 2 (Homo sapiens), O43603; GALR2-expressing cells, agonist activation read-out; activation, %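 (tested at 5 µM)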; actives 0.48% (n = 140,000);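 active = above mean plus 3 SD of all compounds, about 5% in these data, not always enough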;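 also: 0% = vehicle buffer wells and 100% = reference agonist at full effect; tested in CHO reporter cells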
# INS promoter inh cell count: recorded beside INS promoter inh, whose call it bears; normalized cell count, %; measured here: cell count, toxicity; reference of the scale not given here;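 cells exposed to compound for 48 h; stained nuclei by imaging scaled within each plate; lower means fewer cells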
# HSV replic up primary fold: second read-out of HSV replic up, no call of its own (marks repeat the call); fold increase; compound at 10 µM; measured here: primary screen fold increase 10 uM; tested in PC3 cells;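 GFP signal in the first replicate; 1 = infected wells without compound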
# The depositor's hits bear a star; i = inactive; x = no result given.
no.	SMILES	HSV replic up primary fold	INS promoter inh	INS promoter inh cell count	HSV replic up	GALR2 ag	RGS16-Gao	PKD1 inh
1	CCCCCCNC(=O)c1c(O)c2cccc3c2n(c1=O)CCC3	1	x	x	i	-3.0	98	-15
2	CCCCn1[nH]c(-c2ccccc2)cc1=O	0.91	47	133	i	-0.4	104	-4
3	COc1ccc(CCN2CC(C#N)=C3c4cc(OC)c(OC)cc4CCN3C2)cc1OC	0.78	x	x	i	-1.3	105	-6
4	CCn1nc(C)c(NC(=O)/C=C/c2cnn(C)c2)c1C	0.96	-29	135	i	0.3	85	-2
5	Cc1nc2ccccc2c(=O)n1/N=C/c1cn(-c2ccccc2)nc1-c1cccs1	0.83	64	80	i	-0.7	106	2
6	O=C(NCc1ccco1)C1CN(S(=O)(=O)c2ccccc2)CCN1S(=O)(=O)c1ccccc1 (stereo unspecified)	0.86	0	86	i	-1.5	99	4
7	CCCOC(=O)C1[C@H]2C(=O)N(CCCOC)C[C@]23C=C[C@H]1O3 (stereo partly specified)	0.85	-31	92	i	-2.9	103	-6
8	Cc1nc(N2CCOCC2)c2c(C)c(C(=O)Nc3ccccc3Cl)sc2n1	0.87	36	136	i	x	101	1
9	COc1ccc(NC(=S)NNC(=O)c2ccc(S(=O)(=O)N3CCOCC3)cc2)cc1	1	x	x	i	x	112	-1
10	O=C1/C(=C/c2ccccn2)SC(=S)N1c1cccc(O)c1	0.91	x	x	i	x	99	x
11	CC(C)Oc1ccccc1-c1nc(SCC(=O)O)n[nH]1	0.99	-80	107	i	-3.4	104	-9
12	COc1cc(C(=O)Nc2ccc(Cl)c(C(F)(F)F)c2)cc(OC)c1OC	0.8	-11	104	i	-0.9	101	4
13	CCOc1ccc(-n2c(=O)c3sccc3n(Cc3ccc(C)cc3)c2=O)cc1	0.87	x	x	i	x	99	-6
14	O=c1c2sc(-c3ccccc3)cc2nc2n1CCCCC2	0.89	x	x	i	x	98	x
15	Cc1nn(C)cc1C(C(=O)NC1CCCCC1)N(C(=O)Cn1nnc2ccccc21)c1ccc(F)cc1 (stereo unspecified)	0.88	x	x	i	-0.9	97	6

# Complete entries, looked up by structure.
# O=C1/C(=C/c2ccccn2)SC(=S)N1c1cccc(O)c1 is listed with HSV replic up primary fold: 0.91; INS promoter inh: x; INS promoter inh cell count: x; HSV replic up: i; GALR2 ag: x; RGS16-Gao: 99; PKD1 inh: x
# CCCOC(=O)C1[C@H]2C(=O)N(CCCOC)C[C@]23C=C[C@H]1O3 (stereo partly specified) is listed with HSV replic up primary fold: 0.85; INS promoter inh: -31; INS promoter inh cell count: 92; HSV replic up: i; GALR2 ag: -2.9; RGS16-Gao: 103; PKD1 inh: -6

# (list continues)
no.	SMILES	HSV replic up primary fold	INS promoter inh	INS promoter inh cell count	HSV replic up	GALR2 ag	RGS16-Gao	PKD1 inh
16	Fc1ccc(NC(=S)NCCc2ccc(Cl)cc2)cc1	0.9	-40	89	i	0.4	107	1
17	C=C(C)CN(CC)c1nc(N)c2c(N)nc3c(c2c1C#N)CC(=O)N3C12CC3CC(CC(C3)C1)C2	0.73	-14	48	i	0.8	92	5
18	CCOc1nc(OCC)c2cnn(C)c2n1	1.1	x	x	i	x	103	x
19	COCCNC(C(=O)Nc1ccc([N+](=O)[O-])cc1Br)c1ccccc1 (stereo unspecified)	0.91	0	121	i	0.5	108	-5
20	O=C(NCCc1ccccc1F)[C@@H]1CSC2c3ccccc3C(=O)N21 (stereo partly specified)	1	x	x	i	-1.3	102	-4
21	CC1(C)CC(=O)c2cc(C(=O)N3CCN(CCO)CC3)c(=O)n(-c3ccc(Cl)cc3)c2C1	0.94	3	128	i	0.4	132	-5
22	O=C(O)COCCN1CCN([C@H](c2ccccc2)c2ccc(Cl)cc2)CC1	0.9	x	x	i	x	105	x
23	CCC(=O)N1CCN=C1SCc1ccccc1	0.94	x	x	i	-2.3	165	-15
24	Cc1cccc(OCCC(=O)Nc2ccc(F)c(F)c2)c1	1.1	0	159	i	x	99	5
25	COc1ccc2c(c1OC)C(=O)N1c3ccccc3N=C(c3ccc([N+](=O)[O-])cc3)CC21 (stereo unspecified)	1	x	x	i	0.2	98	-5
26	CN1c2ccsc2C(O)=C(C(=S)Nc2ccccc2)S1(=O)=O	0.99	39	61	i	-1.4	97	2
27	O=C(Nc1cccc(O)c1)C1CCCN1C(=O)OCc1ccccc1 (stereo unspecified)	1	x	x	i	-0.8	69	-2
28	COc1cc(C2NC(=O)NC(C)=C2C(=O)OCC2CCCO2)cc(OC)c1OC (stereo unspecified)	0.95	x	x	i	x	109	-3
29	O=C(COc1ccc(Cl)cc1)NCc1nnc(SCC(=O)Nc2ccc(F)cc2F)o1	0.96	15	124	i	x	101	3
30	C=CCn1c(SCc2ccc(C(=O)Nc3ccccc3)cc2)nnc1-c1ccccc1	1.1	x	x	i	0.1	101	-2

no.	SMILES	HSV replic up primary fold	INS promoter inh	INS promoter inh cell count	HSV replic up	GALR2 ag	RGS16-Gao	PKD1 inh
31	CCn1c(=O)cc(SCC(=O)N2CCN(c3ccccn3)CC2)c2ccccc21	x	15	77	x	-2.0	109	8
32	Cc1ccc(/C=C/c2nnc(-c3cccc(C)c3)o2)cc1	1.1	x	x	i	-1.1	95	6
33	O=C(COC(=O)/C=C/c1nc2ccccc2s1)Nc1ccccc1Oc1ccccc1	0.98	-40	51	i	0.2	103	-10
34	O=C(NCC1CCCO1)c1cccc(N2C(=O)C3C4C=CC(C4)C3C2=O)c1 (stereo unspecified)	1	44	82	i	-2.2	103	-5
35	Cc1ccc(/C(O)=C2\C(=O)C(=O)N(Cc3cccnc3)C2c2ccccc2[N+](=O)[O-])cc1 (stereo unspecified)	0.84	40	141	i	-2.2	97	4
36	COc1cccc(CC2(CO)CCCN(S(=O)(=O)N(C)C)C2)c1 (stereo unspecified)	0.99	x	x	i	x	109	-8
37	O=C(Cn1cc(C(=O)C2CC2)c2ccccc21)NC1CCCC1	0.94	-24	83	i	-1.5	101	2
38	COc1ccc(-c2[nH]c3ccccc3c2SCCN)cc1	0.91	x	x	i	x	100	x
39	CN(C)CCCNC(=O)c1cc(C(=O)c2ccc(F)cc2)c[nH]1	0.95	x	x	i	x	100	0
40	COc1ccc(NC(C)=O)cc1S(=O)(=O)Nc1ccc(C(=O)N2CCCC2)cc1	0.93	x	x	i	x	103	x
41	Cc1ccc(NC(=O)c2ccc(S(=O)(=O)N3CCCC3)cc2)cc1	0.91	56	142	i	-1.4	x	-7
42	CCOC(=O)C(C)Sc1nc2ccccc2c(=O)n1CC1CCCCC1 (stereo unspecified)	1.1	x	x	i	-0.3	103	-4
43	COc1cc(CN2CCNC(=O)C2CC(=O)N(Cc2nccn2C)C(C)C)cc(OC)c1 (stereo unspecified)	1	x	x	i	x	102	x
44	CCc1nnc(NC(=O)CCC(=O)NC2CCCc3ccccc32)s1 (stereo unspecified)	1	-10	96	i	-1.5	104	-9
45	COc1ccc(-c2csc(NC(=S)NC(=O)/C=C/c3ccccc3)n2)cc1Br	0.69	x	x	i	x	102	x

# Reprinted at random: 6 entries already listed
no.	SMILES	HSV replic up primary fold	INS promoter inh	INS promoter inh cell count	HSV replic up	GALR2 ag	RGS16-Gao	PKD1 inh
45	COc1ccc(-c2csc(NC(=S)NC(=O)/C=C/c3ccccc3)n2)cc1Br	0.69	x	x	i	x	102	x
38	COc1ccc(-c2[nH]c3ccccc3c2SCCN)cc1	0.91	x	x	i	x	100	x
40	COc1ccc(NC(C)=O)cc1S(=O)(=O)Nc1ccc(C(=O)N2CCCC2)cc1	0.93	x	x	i	x	103	x
32	Cc1ccc(/C=C/c2nnc(-c3cccc(C)c3)o2)cc1	1.1	x	x	i	-1.1	95	6
36	COc1cccc(CC2(CO)CCCN(S(=O)(=O)N(C)C)C2)c1 (stereo unspecified)	0.99	x	x	i	x	109	-8
44	CCc1nnc(NC(=O)CCC(=O)NC2CCCc3ccccc32)s1 (stereo unspecified)	1	-10	96	i	-1.5	104	-9

# Next records follow.
no.	SMILES	HSV replic up primary fold	INS promoter inh	INS promoter inh cell count	HSV replic up	GALR2 ag	RGS16-Gao	PKD1 inh
46	CCCCOc1ccc(C(=O)Nc2cccc(C)n2)cc1	x	x	x	x	-1.8	93	-15
47	CC(/C=C1\SC(=S)N(NC(=O)c2ccc(O)cc2)C1=O)=C\c1ccccc1	0.97	-48	92	i	-0.6	103	-11
48	CCCN(CCC)S(=O)(=O)c1ccc(C(=O)Nc2nnc(CSC)o2)cc1	1	16	68	i	0.1	159	-8
49	CCN(c1ccccc1)S(=O)(=O)c1ccc(C(=O)Nc2nnc(-c3ccco3)o2)cc1	0.91	0	132	i	x	99	-3
50	Cc1nnc(N/N=C/c2c(Cl)cccc2Cl)n1N	1.1	x	x	i	x	97	-9
51	N#CCCN(C(=O)COc1ccc(F)cc1Br)c1ccccc1F	0.98	-45	62	i	x	84	-5
52	CC(C)COc1ccc(/C=C2/Sc3ccccc3C2=O)cc1	1	13	93	i	-2.6	104	1
53	O=C(Nc1cccnc1)c1ccc(Cl)c(S(=O)(=O)N2CCc3ccccc32)c1	0.81	-25	31	i	x	108	-8
54	Cc1noc(C)c1COc1ccc(C(=O)OCC(=O)Nc2ccc3ccccc3c2)cc1	0.83	33	110	i	-2.3	99	1
55	CCOc1ccc(OCCSc2nc3ccccc3c(=O)[nH]2)cc1	0.85	-13	146	i	-1.1	99	-5
56	CCN(c1cccc(C)c1)S(=O)(=O)c1c(C)[nH]c(=O)[nH]c1=O	0.7	-4	143	i	-4.6	104	-10
57	O=c1c2cc(Cl)ccc2nc(-c2ccc([N+](=O)[O-])cc2)n1O	0.88	0	81	i	x	102	-3
58	CN(C)CCNC(=O)NC(=O)c1ccc(Cl)cc1	0.99	-17	118	i	21*	80	-5
59	O=C(CCC(=O)NC1CC1)Nc1nnc(C2CCCCC2)s1	0.97	x	x	i	-2.1	108	-8
60	CC1(Cc2ccc3c(c2)OCO3)NC(=O)NC1=O (stereo unspecified)	0.92	x	x	i	-0.7	98	-12

# 4 compounds from above, arranged by length of the SMILES, largest number first.
no.	SMILES	HSV replic up primary fold	INS promoter inh	INS promoter inh cell count	HSV replic up	GALR2 ag	RGS16-Gao	PKD1 inh
43	COc1cc(CN2CCNC(=O)C2CC(=O)N(Cc2nccn2C)C(C)C)cc(OC)c1 (stereo unspecified)	1	x	x	i	x	102	x
36	COc1cccc(CC2(CO)CCCN(S(=O)(=O)N(C)C)C2)c1 (stereo unspecified)	0.99	x	x	i	x	109	-8
59	O=C(CCC(=O)NC1CC1)Nc1nnc(C2CCCCC2)s1	0.97	x	x	i	-2.1	108	-8
24	Cc1cccc(OCCC(=O)Nc2ccc(F)c(F)c2)c1	1.1	0	159	i	x	99	5

# Next section.
no.	SMILES	HSV replic up primary fold	INS promoter inh	INS promoter inh cell count	HSV replic up	GALR2 ag	RGS16-Gao	PKD1 inh
61	Clc1ccc(Oc2ncnc3oc(-c4ccccc4)cc23)cc1	0.91	x	x	i	-0.9	132	-13
62	CCCCCCCC(=O)OC(CN1CCCCC1)CN1CCCC1=O (stereo unspecified)	0.88	20	157	i	-0.5	110	-6
63	Cc1ccc(S(=O)(=O)N2CCN(c3ccc([N+](=O)[O-])c(NCCN4CCOCC4)c3)CC2)cc1	0.95	x	x	i	1.2	75	-4
64	Cc1ccc(-c2nn3c(C)nnc3c3ccccc23)cc1S(=O)(=O)NCCN1CCOCC1	0.56	-3	141	i	-0.6	96	-1
65	COc1cccc(Nc2ncnc3c2cnn3-c2cccc(C)c2)c1	0.74	x	x	i	2.6	106	6
66	COc1ccc(NC(=O)c2c[nH]c(=O)n(-c3ccc(C)c(C)c3)c2=O)cc1OC	x	x	x	x	x	101	-9
67	C/C(=N\NC(=O)CCn1nnc2ccccc21)c1cccs1	1.2	x	x	i	x	98	x
68	Cn1c(CNc2ccc(Cl)cc2)nc2ccccc21	0.93	-6	126	i	-1.9	109	-4
69	O=C(Nc1ccccc1N1CCOCC1)c1ccccc1NS(=O)(=O)c1ccc(F)c(F)c1	0.94	-7	131	i	-1.7	115	2

# Not a hit list; 1.1% or so of the library scored in one or more.
